Screening data (PubChem)
HSD17B inhib: qHTS Assay for Inhibitors of HSD17B4, hydroxysteroid (17-beta) dehydrogenase 4; 3-hydroxyacyl-CoA dehydrogenase type-2 (Homo sapiens), Q99714; recombinant HSD17B10, NADH fluorescence kinetic; many of its hits are not listed in these tables; Potency, µM (titrated, usually from 57.1 µM), for inactives: top-dose activity change, negative = inhibition, hits mostly inhibitors; hit rate 7.6% among 75,000; active = well fitted inhibition curve with a large enough effect; inconclusive = small, poorly fitted or top-dose-only effect; inactive = no such curve, though single readings can be large or run the other way;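 also: the protocol describes HADH2 (HSD17B10) and not the HSD17B4 of the title; nearly all actives have a fitted effect of over 70% in size; most hits overshoot -100% by far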
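Enzyme plus compound, 15 min room temperature; substrate mix added (NAD+ 1 mM, beta-hydroxybutyryl-CoA 90 uM final); plates read kinetically for NADH fluorescence. HADH2 was His-tagged, E. coli-derived, 20 nM.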
Numbers without * were called inactive; u = inconclusive; [ ] = another dose, or the depositor's remark. % is scaled to controls: 0 for no effect and ±100 for the full control effect; potency is read from the fitted curve at half-maximal effect. These rows are one share of the data; rates above refer to the full screens.

compound	HSD17B inhib
COC(=O)c1c(NC(=O)CN2CCN(c3ccccc3)CC2)c2c(C)cccc2n1C	6.2%
O=C(Nc1cccnc1)c1cccs1	6.3%
CC(OC(=O)c1cc2sccc2n1C)C(=O)NCc1ccc2c(c1)OCO2 (centres undefined)	0.9%
CC1(C)CC(=O)c2sc(NC(=O)CN3C(=O)CCC3=O)nc2C1	-28.3%
Cc1cnc(NC(=O)c2ccco2)s1	-1.9%
CC(C)c1ccc(-c2nc(N3CCCCC3)[nH]c(=O)c2C#N)cc1	6.6%
CCOc1ccc(S(=O)(=O)n2nnc3ccccc32)cc1C(C)C	2.0%
COc1cc(/C=N/n2cnnc2)ccc1OC(=O)c1ccncc1	-4.5%
N#C/C(=C1\CCCN1)c1ccc2ccccc2n1	2.7%
COc1ccc(NC(=O)CN2CCN(C3c4ccccc4-c4ccccc43)CC2)c(OC)c1	5.6%

The last 4 entries of the part before lead into the next.
compound	HSD17B inhib
CCOc1ccc(S(=O)(=O)n2nnc3ccccc32)cc1C(C)C	2.0%
COc1cc(/C=N/n2cnnc2)ccc1OC(=O)c1ccncc1	-4.5%
N#C/C(=C1\CCCN1)c1ccc2ccccc2n1	2.7%
COc1ccc(NC(=O)CN2CCN(C3c4ccccc4-c4ccccc43)CC2)c(OC)c1	5.6%
CN(C)C(=O)CSc1nnc(C23CC4CC(CC(C4)C2)C3)o1	0.8%
COC(=O)CCCCCN1C(=O)NC(CC2CC2)C(C(=O)OCc2ccccc2)=C1C (centres undefined)	-9.9%
COc1ccc2c(c1)C(=O)N(c1ccccc1OC)C(=O)C2(C)C	7.5%
O=C(O)C1C2C=CC(C2)C1C(=O)OCc1ccccc1 (centres undefined)	-11.9%
Cc1ccc(Cl)cc1N1CCN(C(CC(C)C)c2nnnn2CC2CCCO2)CC1 (centres undefined)	-1.5%
Cc1ccc(S(=O)(=O)Cn2nnnc2CN(Cc2ccco2)Cc2cccs2)cc1	-9.0%
Cc1cccc(C)c1OCC(=O)Nc1cccc(NC(=O)c2ccco2)c1	-15.1%
CS(=O)(=O)NC1c2cccc3cccc(c23)C1N1CCOCC1 (centres undefined)	-2.8%
O=C1c2ccccc2C(=O)N1Cc1nn2c(-c3ccc(Cl)cc3)nnc2s1	8.5%
CC1(C)CC2(CCO1)N1CC3(C)CN2CC(C)(C1)C3O (centres undefined)	-11.3%

Individual results from above:
HSD17B inhib result of COC(=O)CCCCCN1C(=O)NC(CC2CC2)C(C(=O)OCc2ccccc2)=C1C (centres undefined) = -9.9%
HSD17B inhib result of Cc1ccc(Cl)cc1N1CCN(C(CC(C)C)c2nnnn2CC2CCCO2)CC1 (centres undefined) = -1.5%
HSD17B inhib result of Cc1ccc(S(=O)(=O)Cn2nnnc2CN(Cc2ccco2)Cc2cccs2)cc1 = -9.0%

(list continues)
compound	HSD17B inhib
Cc1cc2c(c(=O)o1)C(C13C=CC(CC1)C3)C(C#N)=C(N)O2 (centres undefined)	2.5%
CCCc1cc2c(c(NC(C)=O)n1)c(=O)oc1ccccc12	-9.0%
O=C(COC(=O)C1(c2ccccc2F)CCCC1)NC1CCS(=O)(=O)C1 (centres undefined)	9.3%
CCCOC(=O)c1ccc(Oc2cn[nH]c2-c2ccc(OC)cc2O)cc1	u
CCCCCSc1nnc2c(n1)OC(C)N(C(C)=O)c1ccccc1-2 (centres undefined)	-13.9%
CC(NC(=O)Nc1ccccn1)N1C(=O)C2C3C=CC(C3)C2C1=O (centres undefined)	15.4%
CCC(=O)N1CCc2cc(S(=O)(=O)N3CCN(C(=O)c4ccco4)CC3)ccc21	6.8%
COC(=O)c1cccc(C23CC4(C2)[C@H](CN(Cc2ccc(-c5ccccc5)cc2)[C@@H]4c2ccccc2)C3c2ccccc2)c1 (some centres undefined)	7.5%
CC(Oc1ccc(Cl)cc1Cl)C(=O)NCCCN1CCOCC1 (centres undefined)	3.2%
Cc1noc(C)c1-c1nc(N(C)C)c2ccccc2n1	u

Continued; it opens with the 2 that closed the last part.
compound	HSD17B inhib
CC(Oc1ccc(Cl)cc1Cl)C(=O)NCCCN1CCOCC1 (centres undefined)	3.2%
Cc1noc(C)c1-c1nc(N(C)C)c2ccccc2n1	u
O=C(Nc1cc(C(F)(F)F)ccc1N1CCCC1)c1cccnc1	2.8%
CC(C)CCNC(=O)C(c1ccco1)N(C(=O)Cn1nnc2ccccc21)c1ccc2c(c1)OCO2 (centres undefined)	-0.9%
Cc1nc(C)n(CC(O)COc2ccc3ccccc3c2)n1 (centres undefined)	5.7%
CCOc1ccc(-c2nnn(CC(=O)Nc3cccc(OC)c3)n2)cc1OCC	2.1%
CCCN(c1ccc(C(C)C)cc1)S(=O)(=O)c1c(C)[nH]c(=O)[nH]c1=O	6.8%
CCOC(=O)C(Cc1ccccc1)C(=O)Nc1nccs1 (centres undefined)	1.1%
CNC(=O)C1CC(=O)N(c2ccc(F)c(Cl)c2)C1 (centres undefined)	-1.8%
O=C(Nn1cc(C(=O)N2CCN(c3ccccc3F)CC2)c2ccccc2c1=O)c1cnccn1	u
COC(=O)[C@@]1(Cc2ccc(F)cc2)[C@H]2c3cc(C(=O)N4CCCC4)n(CCF)c3C[C@H]2CN1C(=O)c1ccccc1	-0.3%
CC(=O)O[C@H]1C[C@H]2CC[C@@H]3[C@@H](CC[C@]4(C)[C@H](OC(C)=O)[C@H]([N+]5(C)CCCCC5)C[C@@H]34)[C@]2(C)C[C@H]1[N+]1(C)CCCCC1	0.7%[25.6 µM]
CC(=O)N1CCc2cc(C(=O)CN3CCCCC3)ccc21	-1.6%
C=C(C)Cn1c(N2CCCC2)nc2c1c(=O)[nH]c(=O)n2C	4.8%
CC(=O)Nc1cc(C(=O)N2CCCC2)ccc1S(=O)(=O)c1ccc(C)cc1	-6.5%
O=C(O)c1ccc(NC(=O)C2CC=CCC2C(=O)O)cc1 (centres undefined)	-2.4%
COCCn1c(=O)c(-c2cc(F)cc(F)c2)nc2cncnc21	u
CC(=O)c1c(C)[nH]c(C(=O)CSc2nnc(C3CCCCC3)n2N)c1C	2.9%
O=C(NS(=O)(=O)c1ccc(NC(=O)C2CCCO2)cc1)c1ccccc1 (centres undefined)	-7.9%
CCOc1ccc(C(C)=O)cc1N1C(=O)C2C3C=CC(O3)C2C1=O (centres undefined)	-13.6%
COC1=C(OC)c2ccccc2C(C(=O)O)N/C1=C(/C)Nc1ccncc1 (centres undefined)	-12.5%
COC(=O)Nc1ncc(CN2C(=O)c3ccccc3C2=O)s1	10.6%
COCCCN1C(=O)C(O)=C(C(=O)c2ccco2)C1c1cccc(Br)c1 (centres undefined)	-0.4%
CC(=O)c1cccc(NC(=O)N2CCCC2C(=O)Nc2cccc(C)c2C)c1 (centres undefined)	14.2%
CCc1nn(CC(=O)NCCCN2CCCC2=O)c(=O)c2cc3sccc3n12	-0.7%
Cc1cccc(OCC(=O)N(Cc2cccs2)C2CCS(=O)(=O)C2)c1 (centres undefined)	-3.0%
COc1ccc(C(=O)CSc2nnc(-c3ccoc3C)n2CC2CCCO2)cc1 (centres undefined)	u
C[C@@H](C(=O)Nc1ccc2ccccc2c1)[C@@H]1C[C@@]1(C)[C@@H](NS(=O)(=O)c1ccc(-c2ccccc2)cc1)c1ccccc1	-26.0%
O=C(OCN1C(=O)c2ccccc2C1=O)c1ccc2c(=O)n3c(nc2c1)CCC3	10.7%
CC1CCCCC1NC(=O)c1ccc(S(=O)(=O)NCc2ccco2)cc1 (centres undefined)	-5.0%
CCCC1(C(=O)O)NC(c2ccc(OC)cc2O)C2C(=O)N(c3ccc(OC)cc3)C(=O)C21 (centres undefined)	4.0%
COC(=O)c1nc(NC(=O)c2ccc(Cl)cc2)n[nH]1	-5.6%
Cc1csc(SCC(=O)Nc2cccc3nsnc23)n1	u
CN(C(=O)c1c(Cl)nc2sccn12)C1CCCCC1	10.3%
CN(C)S(=O)(=O)c1ccc(C(=O)NCc2cccs2)cc1	-0.1%
O=C(O)CS(=O)(=O)c1ccc(Oc2ccc(S(=O)(=O)CC(=O)O)cc2)cc1	10.6%
CCOC(=O)N1CCN(S(=O)(=O)c2ccc3c(c2)SC(C)C(=O)N3)CC1 (centres undefined)	-4.9%
COCCNC(=O)C(c1ccc(C)o1)N(CC1CCCO1)C(=O)Cn1nnc2ccccc21 (centres undefined)	1.6%
COc1cc(OC)c(NS(=O)(=O)c2coc(C(N)=O)c2)cc1Cl	-1.9%
O=C(NCc1ccco1)c1ccccc1Br	5.5%
CCNc1ncc2nc(CCc3ccccc3)c(=O)n(-c3ccc(OC)cc3)c2n1	u
CCCCOC(=O)n1c(=O)oc2cc(S(=O)(=O)N3CCCCC3)ccc21	-11.7%
COc1ccc(S(=O)(=O)n2c(CCN3CCOCC3)nc3ccccc32)cc1	0.8%
N#Cc1c(NC(=O)CN2CCN(S(=O)(=O)c3ccc4c(c3)OCCO4)CC2)sc2c1CCC2	-7.8%
Cc1cc(NC(=O)c2cc(-c3cccs3)nc3ccccc23)no1	31.6µM*
CS(=O)(=O)Nc1ccc(C(=O)NCCC2=CCCCC2)cc1	2.7%
CCOC(=O)C1=C(c2ccccc2)NC(=O)NC1c1ccc(OCC#N)c(OC)c1 (centres undefined)	-2.9%
COc1ccc(-c2sccc2C(C)C(=O)O)cc1 (centres undefined)	4.3%
CC1CCN(c2c(NCc3ccc(C(=O)NCc4cccnc4)cc3)c(=O)c2=O)CC1	-1.2%
CC1(C)Cc2ccccc2C(=NCCCC(=O)O)N1	-2.3%
CCOC(=O)C1CCCN(c2cc(C)nc3cc(-c4ccc(F)cc4)nn23)C1 (centres undefined)	31.6µM*
COc1ccc(Cn2nnnc2C(c2cccs2)N2CCN(c3ccccc3)CC2)cc1 (centres undefined)	-0.7%

(continued)
compound	HSD17B inhib
O=[N+]([O-])c1cccc2c(Br)[nH]nc12	-7.0%
C=CCNC(=O)CN1CCC(O)(c2ccccc2)CC1	13.4%
CCC(=O)N1CCc2cc(S(=O)(=O)NC(C(=O)N3CCc4ccccc4C3)C(C)C)ccc21 (centres undefined)	5.3%
O=C(c1ccco1)N1CCN(C(=O)C2Cc3ccccc3CN2S(=O)(=O)c2ccc(F)cc2)CC1 (centres undefined)	-3.8%
O=C(CN1C(=O)c2cccc3cccc1c23)N1CCc2ccccc2C1	9.3%
Cc1cc(C)nc(-n2nc(C)cc2NC(=O)COC(=O)CCC(=O)c2cccs2)n1	6.4%
O=C(COC(=O)c1cccnc1Nc1ccccc1F)NCc1ccc2c(c1)OCO2	u
Cc1cccc(OCCOCCSc2ncccn2)c1	-5.6%
CC(C)=CC(=O)Nc1ccc2c(c1)OCO2	1.3%
O=C(COc1ccc(F)cc1Br)NCc1ccccn1	7.4%
CCCCCCCC/C=C\CCCCCCCC(=O)NCCO	-12.5%
Cc1ccccc1-c1nc2cc(N)ccc2o1	u
CCN(CC)CCCN1C(=O)C(O)=C(C(=O)c2cc3ccccc3o2)C1c1ccccn1 (centres undefined)	-7.6%
Cc1cccc(NC(=O)NCCN2C(=O)C3C4C=CC(C4)C3C2=O)c1 (centres undefined)	8.3%
O=C(NCSc1ccncn1)c1ccccc1	-4.2%
COc1ccc(CCNC(=O)c2cc(-c3cccs3)on2)cc1OC	0.7%
CC(NC(=O)Cn1cnnn1)C12CC3CC(CC(C3)C1)C2 (centres undefined)	2.5%
C#CC(C)(CC)NC(=O)c1cc(OC)c(OC)c(OC)c1 (centres undefined)	2.3%
Cc1cccc(NS(=O)(=O)c2cccs2)n1	u
O=C(COC(=O)c1n[nH]c2ccccc12)NC(=O)NCc1ccco1	31.6µM*
N#Cc1cccc(NC(=O)N2CC[C@@]3(CCCN(S(=O)(=O)c4ccccc4)C3)C2)c1	-6.2%
CCCCOC(=O)Cn1c(=N)n(CCC)c2ccccc21	0.7%
Nc1nc(CSc2nc3ccccc3[nH]2)nc(N2CCOCC2)n1	2.6%
CCn1c(C)csc1=NC(=O)c1ccccc1O	-17.1%
Cc1cccc(N2CCN(S(=O)(=O)c3ccc4c(c3)c(=O)n(C)c(=O)n4C)CC2C)c1 (centres undefined)	1.2%
CCCc1cc(COC)c(C#N)c(=O)[nH]1	3.98µM*
CC(=O)Nc1ccc(S(=O)(=O)CCC#N)cc1	11.8%
CN(C)CCN1C(=O)CC[C@]2(C)C1=CC[C@@H]1[C@@H]2CC[C@]2(C)[C@H]1CC[C@]2(C)O	4.3%[11.4 µM]
O=C(NCCCN1CCOCC1)c1cc(-c2cccs2)on1	4.2%
Cc1ccc(O)c(NC(=O)c2cccc(NC(=O)c3ccco3)c2)c1	5.7%
C#CCOC(=O)NC(/C=C/CCCC)c1ccccc1 (centres undefined)	5.8%
COC(=O)N1CCC[C@@]2(CCN(C(=O)Nc3ccccc3)C2)C1	-4.4%
CCN(CC)S(=O)(=O)c1cccc(C(=O)OCc2cc(=O)n3nc(C)sc3n2)c1	-6.4%
CCCSc1nc(C)cc(=O)[nH]1	19.7%

Retrieved by compound from the list above, 2 records:
compound	HSD17B inhib
C#CCOC(=O)NC(/C=C/CCCC)c1ccccc1 (centres undefined)	5.8%
COc1ccc(NC(=O)CN2CCN(C3c4ccccc4-c4ccccc43)CC2)c(OC)c1	5.6%
